Rango-impB inh – qHTS Assay for Inhibitors of Rango (Ran-regulated importin-beta cargo) - Importin beta complex formation; Rango CFP/YFP FRET sensor + importin beta, 45 min; actives 0.031% (n = 340,000); Importin subunit beta-1 (Homo sapiens), Q14974; Potency, µM (highest dose often 92.2 µM), without a hit: at the top dose inhibition of complex formation; active = rising FRET ratio curve, often small or poorly fitted; inconclusive = mostly compound fluorescence or quenching in the first reads; inactive = flat curves in all reads;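 note: potency is the fitted concentration of half-maximal effect; 0% = DMSO wells and 100% = buffer wells lacking importin beta; nearly all actives have a fitted effect of over 15% in size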
Target sequence (Q14974 whole entry, looked up): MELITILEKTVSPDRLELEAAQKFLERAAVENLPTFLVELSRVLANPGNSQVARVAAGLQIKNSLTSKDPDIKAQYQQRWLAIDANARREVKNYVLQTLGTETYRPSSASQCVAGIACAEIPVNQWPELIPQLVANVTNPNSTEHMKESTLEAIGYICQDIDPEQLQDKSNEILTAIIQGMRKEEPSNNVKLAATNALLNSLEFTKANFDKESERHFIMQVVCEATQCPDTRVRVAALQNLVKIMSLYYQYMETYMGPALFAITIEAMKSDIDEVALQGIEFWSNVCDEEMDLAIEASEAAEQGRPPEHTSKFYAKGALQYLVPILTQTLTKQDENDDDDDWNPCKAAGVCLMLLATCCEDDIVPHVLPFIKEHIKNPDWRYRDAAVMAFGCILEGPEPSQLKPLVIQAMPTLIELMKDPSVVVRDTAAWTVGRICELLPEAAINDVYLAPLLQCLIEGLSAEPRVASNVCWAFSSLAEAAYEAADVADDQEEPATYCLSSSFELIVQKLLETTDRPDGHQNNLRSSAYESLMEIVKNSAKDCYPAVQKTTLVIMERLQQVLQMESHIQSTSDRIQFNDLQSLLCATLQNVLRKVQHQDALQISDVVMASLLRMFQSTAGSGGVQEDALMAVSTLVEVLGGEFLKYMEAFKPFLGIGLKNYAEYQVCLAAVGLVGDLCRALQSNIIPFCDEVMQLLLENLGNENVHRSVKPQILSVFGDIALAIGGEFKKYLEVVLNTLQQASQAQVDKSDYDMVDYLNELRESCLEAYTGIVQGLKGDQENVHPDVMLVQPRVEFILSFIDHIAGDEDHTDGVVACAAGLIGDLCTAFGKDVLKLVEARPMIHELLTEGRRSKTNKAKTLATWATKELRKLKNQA
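FRET biosensor Rango (snurportin 1 IBB between N-terminal EYFP and C-terminal Cerulean), 50 nM in PBS/1 mM DTT/0.02% Tween-20/0.1% BSA, preincubated 5 min RT with compound; 0.125 microM importin beta added, 45 min RT, CFP/YFP FRET ratio read.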
Rango release inh – qHTS Assay for Inhibitors of RanGTP induced Rango (Ran-regulated importin-beta cargo) - Importin beta complex dissociation; Snurportin-1 (Homo sapiens) + GTP-binding nuclear protein Ran (Homo sapiens) + Importin …; Biochemical FRET Rango-importin beta, RanGTP-induced dissociation; Potency, µM (top dose mostly 46.1 µM), without a hit: top-dose activity change, negative = inhibition; actives 0.071% (n = 340,000); AID 540253, 2011; active means falling FRET ratio curve, often poorly fitted, with flat reads before Ran was added; inconclusive means other falling curves, or compound fluorescence or quenching; inactive means flat or rising ratio curve;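 note: potency is the fitted concentration of half-maximal effect; % of control where 0% means no effect; nearly all actives have a fitted effect of over 45% in size; -100% = wells without RanGTP and RCC1; the record marks most hits as doubtful in a second field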
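FRET read at 45 min, room temperature: inhibitors block the CFP/YFP signal rise when RanGTP (0.6 uM Ran, 2 mM GTP, 0.2 uM RCC1) frees Rango (0.1 uM) from importin beta (0.25 uM). Pre-read after 5 min compound exposure flags interference.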
miR-21 FLuc – qHTS Assay for Modulators of miRNAs and/orActivators of miR-21. HeLa miR-21 FLuc reporter, luciferase, 48 h. Potency, µM (highest dose often 38.3 µM), without a hit: at the highest dose reporter change, positive = more light. 340,000 tested, under 10 active; active = well fitted rising curve with a large enough effect; inconclusive = small, poorly fitted or top-dose-only effect; inactive = no such curve, though single readings can be large or run the other way;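 note: % of control where 0% means no effect; miR-21 action dims this reporter so a rising signal means less miR-21 action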
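Compounds were titrated across several concentrations (up to approximately 40 uM) and incubated 48 hours with HeLa miR-21-FLuc reporter cells (miR-21 target sequence downstream of FLuc, endogenous miR-21). Readout was firefly luciferase luminescence after lytic detection reagent.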
GLA inh pH 4.5 – qHTS Assay for Inhibitors of Human alpha-Galactosidase at pH 4.5. 230,000 tested, under 10 active. Alpha-galactosidase A (Homo sapiens), P06280. purified enzyme, 4-MU-alpha-Gal fluorescence, pH 4.5. AID 1467, 2008. activity change, negative = inhibition, % at 105 µM; inconclusive = small, poorly fitted or top-dose-only inhibition, or a rising curve; inactive = flat fitted curve, though single readings scatter; no compound was filed as active;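 note: 0% = full activity with enzyme and -100% = basal without enzyme; dose as in the result columns while the protocol names 77 µM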
* marks the source's active call; other numbers are inactive results; & = joins results of further samples. These rows are one share of the data; rates above refer to the full screens.

What do the screens show for `COc1ccccc1-c1nc(NC(C)=O)n[nH]1`?
Rango-impB inh: -0.1%; Rango release inh: 25%; miR-21 FLuc: 3%; GLA inh pH 4.5: -1

What do the screens show for `O=C(Cn1c(Cc2ccccc2)nc2ccccc21)NCc1ccc2c(c1)OCO2`?
Rango-impB inh: -3.4%; Rango release inh: 11%; miR-21 FLuc: -5%; GLA inh pH 4.5: 5

What do the screens show for `O=C(COc1ccc(Cl)cc1)NCCN1CCCCC1`?
Rango-impB inh: -9.4%; Rango release inh: 12%; miR-21 FLuc: -2%; GLA inh pH 4.5: 7

How did CC1CN(c2nc3c(c(=O)n(C)c(=O)n3C)n2Cc2c(F)cccc2Cl)CC(C)O1 (centres undefined) do in these assays?
Rango-impB inh: -0.2%; Rango release inh: 4%; miR-21 FLuc: -16%; GLA inh pH 4.5: 9

What do the screens show for `C=CC[C@@H](Cc1ccc(F)cc1)C(=O)OC[C@@H]1CCCN1C(=O)[C@@H](CC=C)CC(=O)N[C@H](CO)Cc1ccccc1`?
Rango-impB inh: 6.1%; Rango release inh: 19%

How did COC(=O)[C@@H](NC(=O)N1CCC(C)CC1)C(C)C do in these assays?
Rango-impB inh: 2.3%; Rango release inh: 5%; miR-21 FLuc: 1%; GLA inh pH 4.5: 3

How did OCC[C@@H]1C[C@H](O)[C@@H](O)[C@]2(OCc3ccccc32)O1 do in these assays?
Rango-impB inh: -2.8%; Rango release inh: -22%; miR-21 FLuc: -1%

How did Cc1cc(NC(=O)CSCC(=O)Nc2ccccc2N2CCCCC2)no1 do in these assays?
Rango-impB inh: 0.0%; Rango release inh: 1%

What do the screens show for `COc1ccc2cc(C(=O)NCc3ccccc3CN3CCCC3)ccc2c1`?
Rango-impB inh: 4.9%; Rango release inh: 20%

What do the screens show for `O=C(CN1CCCC1c1ccc2c(c1)OCCO2)NC(=O)Nc1ccccc1` (centres undefined)?
Rango-impB inh: inconclusive; Rango release inh: 5%

Results for O=C(CSc1ccc([N+](=O)[O-])cn1)Nc1ccc(N2CCOCC2)cc1 ?
Rango-impB inh: -0.1%; Rango release inh: 7%; miR-21 FLuc: 2%; GLA inh pH 4.5: 4

What do the screens show for `O=C(COC(=O)c1ccc(O)cc1)Nc1cccc(S(=O)(=O)NC2=NCCCCC2)c1`?
Rango-impB inh: -4.3%; Rango release inh: 5%; miR-21 FLuc: 5%; GLA inh pH 4.5: -3

Looked up one by one from the list above:
What do the screens show for `O=C(COC(=O)c1ccc(O)cc1)Nc1cccc(S(=O)(=O)NC2=NCCCCC2)c1`?
Rango-impB inh: -4.3%; Rango release inh: 5%; miR-21 FLuc: 5%; GLA inh pH 4.5: -3

What do the screens show for `O=C(CN1CCCC1c1ccc2c(c1)OCCO2)NC(=O)Nc1ccccc1` (centres undefined)?
Rango-impB inh: inconclusive; Rango release inh: 5%

Returning to the listing, repeating the 4 entries before the break.
What do the screens show for `COc1ccc2cc(C(=O)NCc3ccccc3CN3CCCC3)ccc2c1`?
Rango-impB inh: 4.9%; Rango release inh: 20%

What do the screens show for `O=C(CN1CCCC1c1ccc2c(c1)OCCO2)NC(=O)Nc1ccccc1` (centres undefined)?
Rango-impB inh: inconclusive; Rango release inh: 5%

Results for O=C(CSc1ccc([N+](=O)[O-])cn1)Nc1ccc(N2CCOCC2)cc1 ?
Rango-impB inh: -0.1%; Rango release inh: 7%; miR-21 FLuc: 2%; GLA inh pH 4.5: 4

What do the screens show for `O=C(COC(=O)c1ccc(O)cc1)Nc1cccc(S(=O)(=O)NC2=NCCCCC2)c1`?
Rango-impB inh: -4.3%; Rango release inh: 5%; miR-21 FLuc: 5%; GLA inh pH 4.5: -3

Results for CCNC1(C#N)CCN(Cc2ccccc2)CC1 ?
Rango-impB inh: inconclusive; Rango release inh: 0%

What do the screens show for `Cc1cccc2sc(NC(=O)c3ccc(Cl)s3)nc12`?
Rango-impB inh: -0.8%; Rango release inh: 8%; miR-21 FLuc: -11%; GLA inh pH 4.5: 0

What do the screens show for `COC(=O)c1ccc(N2CC3CNC(=O)C2(C(=O)OC)N3C)cc1` (centres undefined)?
Rango-impB inh: 1.6%&2.9%; Rango release inh: -5%&1%

Results for Cc1ccc(OCC(=O)Nc2ccc(S(=O)(=O)Nc3ccccn3)cc2)c(C)c1 ?
Rango-impB inh: -2.2%; Rango release inh: -5%; miR-21 FLuc: -6%; GLA inh pH 4.5: -12

How did Cc1nn(CCc2n[nH]c(=S)n2C)c(C)c1Br do in these assays?
Rango-impB inh: 5.9%; Rango release inh: 0%; miR-21 FLuc: -11%; GLA inh pH 4.5: 11

What do the screens show for `CCN(CC)S(=O)(=O)c1cccc(-c2n[nH]c(=S)n2Cc2ccccc2)c1`?
Rango-impB inh: 2.9%; Rango release inh: -4%; miR-21 FLuc: 2%; GLA inh pH 4.5: -2

How did O=C(Nc1nc2ccccc2[nH]1)c1cccc(Cl)c1 do in these assays?
Rango-impB inh: 3.2%; Rango release inh: 1%; miR-21 FLuc: -41%

How did N=c1c(C(=O)NC2CCCCC2)cc2c(=O)n3ccccc3nc2n1CC1CCCO1 (centres undefined) do in these assays?
Rango-impB inh: inconclusive; Rango release inh: inconclusive; miR-21 FLuc: -9%

Results for COc1ccc(N(CC(=O)NCCc2ccccc2)C(=O)CCC(=O)Nc2nccs2)cc1 ?
Rango-impB inh: -2.6%; Rango release inh: -9%; miR-21 FLuc: -1%

What do the screens show for `COC(=O)c1nc(N)sc1-c1ccc(OC)cc1`?
Rango-impB inh: 6.0%; Rango release inh: 13%; miR-21 FLuc: -1%; GLA inh pH 4.5: 1

Results for Cc1cccc(N2CCN(C(=O)c3cnn4c(C(F)F)cc(-c5ccccc5)nc34)CC2)c1C ?
Rango-impB inh: -0.4%; Rango release inh: 1%; miR-21 FLuc: -3%; GLA inh pH 4.5: -2

How did CC(=O)c1ccc(NC(=O)CSc2nnc(Cc3cccn3C)n2-c2ccc(F)cc2)cc1 do in these assays?
Rango-impB inh: 0.1%; Rango release inh: inconclusive; miR-21 FLuc: 3%; GLA inh pH 4.5: -4

What do the screens show for `Cc1ccc(-c2[nH]nc3c2C(c2ccccc2OC(=O)N2CCOCC2)C(C#N)=C(N)O3)cc1` (centres undefined)?
Rango-impB inh: -1.3%; Rango release inh: 0%; miR-21 FLuc: -23%

How did O=C(Nc1cc(Cl)ccc1O)c1cc(-c2ccco2)on1 do in these assays?
Rango-impB inh: 0.4%; Rango release inh: 10%; miR-21 FLuc: -65%

Results for COc1cc(OC)cc(-c2c(C#Cc3ccsc3)c3cc(-c4ccc(OC)c(F)c4)ccc3n2C)c1 ?
Rango-impB inh: inconclusive; Rango release inh: -13%

What do the screens show for `COc1ccc(CN2CCN(C(=O)c3ccc(S(=O)(=O)NCc4ccco4)cc3)CC2)cc1`?
Rango-impB inh: 0.8%; Rango release inh: 32%

What do the screens show for `CCN1CCN(CC(O)COc2ccc(Cl)cc2)CC1` (centres undefined)?
Rango-impB inh: 0.0%; Rango release inh: 10%; miR-21 FLuc: -9%; GLA inh pH 4.5: 7

Results for Clc1ccc(-c2nc(Cc3ccccc3Cl)no2)cc1 ?
Rango-impB inh: 5.2%; Rango release inh: 1%; miR-21 FLuc: -10%; GLA inh pH 4.5: -15

Results for COc1ccc(NC(=O)/C(C#N)=C/c2ccc(Sc3nncn3C)c([N+](=O)[O-])c2)cc1 ?
Rango-impB inh: -1.0%; Rango release inh: 9%; miR-21 FLuc: 5%; GLA inh pH 4.5: -1

What do the screens show for `CCOC(=O)c1c(NC(=S)NCCc2ccccc2)sc2c1CC(C(C)C)OC2` (centres undefined)?
Rango-impB inh: 0.2%; Rango release inh: 3%; miR-21 FLuc: -1%; GLA inh pH 4.5: 1

Results for O=C(NCCN1C(=O)S/C(=C\c2cccnc2)C1=O)c1cccc(OC(F)F)c1 ?
Rango-impB inh: -2.5%; Rango release inh: -15%; miR-21 FLuc: -8%; GLA inh pH 4.5: 3

What do the screens show for `CCOC(=O)c1ccc(S(=O)(=O)NNC(=O)COc2cccc(C)c2)cc1`?
Rango-impB inh: -5.4%; Rango release inh: -15%; miR-21 FLuc: 2%; GLA inh pH 4.5: 1

How did CC(=O)c1ccc(NC(=O)COc2ccc3c(c2)OCO3)cc1 do in these assays?
Rango-impB inh: 6.9%; Rango release inh: -4%; miR-21 FLuc: -21%; GLA inh pH 4.5: -5

Results for COc1ccc(NC(=O)COc2ccc(C(=O)OCC(=O)N(C(C)C)C(C)C)cc2OC)cc1 ?
Rango-impB inh: 0.2%; Rango release inh: -1%; miR-21 FLuc: -1%; GLA inh pH 4.5: -18

How did COc1ccccc1NC(=O)Nc1nc(CC(=O)NCc2cccnc2)cs1 do in these assays?
Rango-impB inh: -1.6%; Rango release inh: -13%

What do the screens show for `CCOc1cc(N2C(=O)CC3CS(=O)(=O)CC32)c(OCC)cc1NC(=O)c1ccccc1` (centres undefined)?
Rango-impB inh: 1.7%; Rango release inh: -15%; miR-21 FLuc: 1%; GLA inh pH 4.5: -1

Results for COc1cc2c3c(c1)C(C)CC(C)(C)N3C(=O)C2=O (centres undefined) ?
Rango-impB inh: 5.5%; Rango release inh: 0%; miR-21 FLuc: 5%; GLA inh pH 4.5: -7

Results for CCOC(=O)C1CCCN(c2nc3ccccc3nc2C(C#N)C(=O)OC(C)C)C1 (centres undefined) ?
Rango-impB inh: inconclusive; Rango release inh: inconclusive; miR-21 FLuc: -2%; GLA inh pH 4.5: 7

How did CCN(CC)CCCN(Cc1cc2cc(OC)c(OC)cc2[nH]c1=O)C(=O)Nc1ccccc1 do in these assays?
Rango-impB inh: -1.3%; Rango release inh: 0%; miR-21 FLuc: -15%; GLA inh pH 4.5: -7

Results for CCCn1c(SCC(=O)Nc2cc(C)on2)n[nH]c1=O ?
Rango-impB inh: 0.5%; Rango release inh: 13%

What do the screens show for `NC1=NC(=O)C2(COC(c3cccc([N+](=O)[O-])c3)OC2)S1` (centres undefined)?
Rango-impB inh: -0.9%; Rango release inh: 22%; miR-21 FLuc: -2%; GLA inh pH 4.5: 7

What do the screens show for `COc1ccc(-c2nc(N)nc(C(F)(F)F)c2-c2ccccc2OC)c(O)c1`?
Rango-impB inh: -3.4%; Rango release inh: -7%; miR-21 FLuc: -1%

How did CCNC(=O)COC(=O)c1[nH]c(C)c(C(=O)OC)c1C do in these assays?
Rango-impB inh: -4.1%; Rango release inh: -13%; miR-21 FLuc: -28%; GLA inh pH 4.5: 2

How did CSc1ccc(-c2nnn(Cc3ccc(Br)cc3)n2)cc1 do in these assays?
Rango-impB inh: 6.1%; Rango release inh: 15%; miR-21 FLuc: -40%; GLA inh pH 4.5: -8

How did CCOC(=O)C(C)(C)Sc1ncnc2nc[nH]c12 do in these assays?
Rango-impB inh: -0.2%; Rango release inh: -4%; miR-21 FLuc: 2%; GLA inh pH 4.5: -4

What do the screens show for `O=C(COc1ccc(Cl)cc1)NCCSCc1ccccc1Cl`?
Rango-impB inh: 0.0%; Rango release inh: inconclusive; miR-21 FLuc: -6%; GLA inh pH 4.5: -3

How did Cc1cccnc1NC(=O)c1cccc(S(=O)(=O)N2CCCC2)c1 do in these assays?
Rango-impB inh: 0.3%; Rango release inh: -1%

What do the screens show for `Cc1ccc(S(=O)(=O)NCCC(=O)OCC(=O)NC(=O)c2cccn2C)cc1`?
Rango-impB inh: 1.7%; Rango release inh: -7%; miR-21 FLuc: 4%; GLA inh pH 4.5: 7

What do the screens show for `CC(C)c1nnc(NC(=O)c2cc3cc(Br)ccc3oc2=O)s1`?
Rango-impB inh: -1.2%; Rango release inh: 13%; miR-21 FLuc: -16%; GLA inh pH 4.5: -6

How did COc1cc(OC)cc(C(=O)OCc2ccc([N+](=O)[O-])cc2)c1 do in these assays?
Rango-impB inh: 0.0%; Rango release inh: -4%; miR-21 FLuc: -3%; GLA inh pH 4.5: 0

What do the screens show for `Cc1onc(-c2ccccc2Cl)c1C(=O)OCC(=O)N1CCN(c2ccccc2)CC1`?
Rango-impB inh: -0.5%; Rango release inh: 11%
